# T cruzi repl = blocks replication of Trypanosoma cruzi; inhibition, % (test concentration not listed); 300,000 tested, 1.4% active; T. cruzi beta-gal in NIH3T3, luminescence, 90 h; AID 1885;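 active = mean inhibition across valid replicates above about 55%, limit read from the data; inconclusive = mean below that limit but half or more replicates reach it; inactive = mean below it, under half of replicates reach it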;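 note: signal also drops with host cell toxicity which is not excluded here; 0% = plate median of DMSO wells and 100% = zero luminescence signal; higher percent means less beta-gal luminescence so fewer parasites; stock transfer was 50 nL into about 50 µL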
# Bfl-1 A1 inh = inhibitors of the anti-apoptotic protein A1, read as caspase activation. MEF A1-2A-BIM cells, Caspase-Glo 3/7 luminescence, 3 h; percent of clofoctol response, vehicle zero. 330,000 tested, 0.066% active. caspase activation, % (concentration not given with the values). AID 2462;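 active = over half of replicate activation scores above 10%, or exactly half above 10 with the replicate mean above 10; inconclusive = replicate mean below 10 yet half the replicates above 10; inactive = over half of replicates below 10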;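 note: wells of about 30 µL received 50 nL stock; many hits fall short of the cut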
# Calb FLC = affects C. albicans growth with fluconazole; C. albicans CaCi-2 (fluconazole-resistant clinical isolate) + fluconazole, Alamar Blue growth, 48 h; growth inhibition, % (no concentration beside the values); 300,000 tested, 0.57% active;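 active = most replicates above 75%; inconclusive = exactly half above 75%; inactive = most below 75%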;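 note: all wells also contain fluconazole at 8 µg/ml as a sub-toxic cotreatment; 0% = median of DMSO wells and 100% = median of geldanamycin control wells; wells of about 8 µL received 7.5 nL stock; the first replicate is given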
# Vif TR-FRET = HIV-1 Vif–A3G interaction blockers – biochemical, TR-FRET, GST-Vif 1-94, biotin-A3G peptide, dose response retest, primary screen (AID 1117319); TR-FRET GST-Vif / biotin-A3G peptide binding; higher % means a stronger effect; test concentration not given here; strong numbers were not always called active; inhibition, %, or IC50 in µM where a hit was titrated; 260,000 tested, 0.57% active;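 active = above the screen mean plus three standard deviations and confirmed in dose response; inconclusive = results disagree or hit not tested in dose response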;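 note: Vif residues 1-94 fused to GST binding biotinylated APOBEC3G peptide 110-148; 0% = full assay without inhibitor and 100% = GST in place of GST-Vif; retest series ran down from 100 µM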
# RanGTP-Impb inh = disruptors of Ran-importin-beta complex formation – biochemical, FRET, CFP-Ran, YFP-importin-beta, homogeneous, primary screen; cell-free CFP-Ran/YFP-importin-beta FRET ratio; inhibition, % (test concentration not listed); 300,000 tested, 1.1% active; AID 2216;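 active = most replicates above 15%; inconclusive = exactly half above 15%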;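 note: 0% = DMSO wells and 100% = Ran loaded with GDP instead of GTP; wells of about 40 µL received 100 nL stock; the first replicate is given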
# MLL AF4-AF9 inh = blocks AF4 peptide binding to human AF9; AlphaScreen, biotin-AF4 peptide binding to FLAG-AF9; inhibition, % at 10 µM; 350,000 tested, 0.47% active;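 active = every replicate reaching a set inhibition limit, whatever the replicate mean, cut at about 25% in these data; inconclusive = mean inhibition reaches that limit but some replicates miss it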;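 note: 0% = plate neutral control median and 100% = total signal loss; the record names both 10 and 1 µM as test concentration; the first replicate is given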
# Target sequence (P42568 whole entry, looked up): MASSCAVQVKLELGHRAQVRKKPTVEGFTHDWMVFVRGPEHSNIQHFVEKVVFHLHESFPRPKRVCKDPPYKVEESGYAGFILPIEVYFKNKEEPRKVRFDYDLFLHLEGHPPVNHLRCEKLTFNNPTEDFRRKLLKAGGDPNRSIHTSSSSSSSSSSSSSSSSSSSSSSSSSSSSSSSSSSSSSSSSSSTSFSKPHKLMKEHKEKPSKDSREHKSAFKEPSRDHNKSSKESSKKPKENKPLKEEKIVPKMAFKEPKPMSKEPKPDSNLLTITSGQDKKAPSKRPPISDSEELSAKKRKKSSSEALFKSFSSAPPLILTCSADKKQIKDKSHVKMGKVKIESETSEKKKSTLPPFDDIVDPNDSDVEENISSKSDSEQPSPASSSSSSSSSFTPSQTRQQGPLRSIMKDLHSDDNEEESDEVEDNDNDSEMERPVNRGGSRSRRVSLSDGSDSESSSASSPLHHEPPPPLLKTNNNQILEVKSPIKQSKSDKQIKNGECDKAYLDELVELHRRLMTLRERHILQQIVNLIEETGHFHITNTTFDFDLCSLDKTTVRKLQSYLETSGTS
# Beta cell apopt = blocks beta cell apoptosis. INS-1E cytokine-induced death, ATP luminescence, 48 h; percent of positive-control rescue, neutral wells zero. 300,000 tested, 0.8% active. protection from apoptosis, % (no concentration beside the values);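 active = all replicates at 75% or more, or half of them and the mean; inconclusive = half reach 75% but not the mean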;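 note: 0% = cytokine-treated negative control wells and 100% = positive control rescue; higher means more ATP so stronger rescue from cytokine killing; wells of about 40 µL received 100 nL stock; the first replicate is given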
# LANA-H2A inh = blocks KSHV LANA binding to histone H2A/H2B; Q9QR71; cell-free LANA-H2A/H2B peptide, fluorescence polarization; inhibition, % (test concentration not listed); 320,000 tested, 0.6% active; in the data active = inhibition mostly above about 10%, no sharp cut-off; inactive = mostly below about 6.7%;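 note: stock transfer was 7.5 nL into about 10 µL; 0% = median of vehicle wells and 100% = median of positive control wells; one replicate is shown; the record names a cut of 25% in any replicate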
# * marks the source's active call; other numbers are inactive results; ? = inconclusive; / = not tested or not shown; & = joins results of further samples. No enrichment for hits; overall some 4.3% were active at least once.
SMILES,T cruzi repl,Bfl-1 A1 inh,Calb FLC,Vif TR-FRET,RanGTP-Impb inh,MLL AF4-AF9 inh,Beta cell apopt,LANA-H2A inh
O=C(c1cccc(-c2ccc(O)cc2)c1)N1CCOCC1,0,-0.9,1,1%,1.3,/,0,14
O=[N+]([O-])c1cc(C(F)(F)F)cc([N+](=O)[O-])c1N1CCCNCC1,19,-0.7,6,19%,4.4,3.8,-2,-3.6
CCOc1ccc(CN(C)CC(O)COC(c2ccc(OC)cc2)c2ccc(OC)cc2)cc1 (stereo not drawn),43,-0.2,1,/,2.6,13,0,-0.8
CCOC(=O)N1CCN(C(=O)c2c(-c3ccccc3)noc2C)CC1,-16,-1.1,10,-5%,0.4,1.4,/,-4.1
COc1ccc(C)cc1S(=O)(=O)N1CCC(C)CC1,5,-0.4,-5,1%,-2.1,/,-7,11
CC1(C)CC(=O)C=C(Nc2ccc(Br)cc2F)C1,-10,0.1,-2,-6%,0.0,2.4,-4,-2.1
CC(C)(C#N)NC(=O)c1ccco1,2,0.0,-2,1%,0.9,/,-6,-2.1
Cc1cc(C(=O)Cn2nc(C(=O)O)c3ccccc3c2=O)c(C)n1-c1cccc(C(F)(F)F)c1,4,0.2,-5,/,-1.0,1.9,-1,-2.0
CCOc1c(Br)cc(CNc2ccc(N3CCOCC3)cc2)cc1OC,0,-2.0,-3,-8%,-4.4,/,-1,5.0
O=C(Nn1cc(C(=O)Nc2ccc(F)cc2F)c2ccccc2c1=O)c1cnccn1,32,0.6,42,-3%,-2.8,-1.1,-13,-2.4
Cc1ccc(NC(=O)C(C)SCc2nc3sc4c(c3c(=O)[nH]2)CCCC4)nc1 (stereo not drawn),-6,-0.5,22,-2%,-7.6,-1.0,/,-2.0
CSc1ccc(NC(=O)N2CCC(C(=O)c3ccc(F)cc3)CC2)cc1,-6,0.3,-16,/,-1.9,1.0,10,5.6
CC(=O)Nc1nc(SCCCc2ccccc2)n[nH]1,8,0.2,6,2%,4.3,/,-9,2.0
COc1ccc2[nH]cc(CCNC(=O)Cc3ccc(Cl)cc3)c2c1,4,1.7,12,6%,2.1,2.1,-7,-2.3
O=C(Nc1cc(C(F)(F)F)ccc1N1CCOCC1)c1ccc[n+]([O-])c1,-5,0.0,4,5%,5.9,/,-1,-1.1
O=c1c2ccccc2nc(-c2ccccc2)n1O,-24,1.3,-4,/,0.7,/,-2,-0.9
CCC(=O)c1ccc(OCC(=O)OCC(=O)c2cc(C)n(C3CC3)c2C)cc1,-7,-0.1,4,7%,1.5,2.3,-5,0.5
Cc1cccc(CCN(CC(=O)NC(C)(C)C)C(=O)c2csnn2)c1,-16,0.1,0,17%,4.8,-1.4,1,-3.8
CCOc1cc(-c2noc(-c3cccnc3)n2)ccc1OC,-5,-0.4,-10,-6%,-3.1,/,0,-0.9
Cc1occc1-c1nnc(SCC(=O)Nc2ccc3c(c2)OCO3)n1CC1CCCO1 (stereo not drawn),9,0.4,-2,31%,-2.5,/,0,-1.5
COc1ccccc1C(=O)COC(=O)CNS(=O)(=O)c1ccc(C)cc1,-21,0.0,-4,20%,5.4,-2.2,-4,-2.4
NS(=O)(=O)c1ccc(NC(=O)CSc2nc3ccccc3c(=O)n2Cc2ccncc2)cc1,/,0.6,/,/,/,-1.6,-5,0.1
O=C(NC1CCCCC1)c1noc2c1CCCCC2,13,-3.4,9,0%,0.2,/,4,0.9
COCCn1c(SCC(=O)Nc2nnc(C)s2)nnc1-c1ccco1,-11,-0.2,-4,13%,-5.8,-2.6,2,-5.4
CC12CCC(=O)N1C(C(=O)Nc1nnc(SCc3ccccc3)s1)CS2 (stereo not drawn),4,0.1,5,1%,8.5,-3.5,-2,-6.4
CCOc1ccc(Cc2nc(-c3nonc3N)no2)cc1OCC,0,-1.1,8,5%,-3.2,/,-1,-2.4
Cn1c(CCNC(=O)OC(C)(C)C)n[nH]c1=S,5,?,-5,14%,-5.3,/,-11,-1.9
CC(C)NC(=O)Cn1c(=O)cnc2ccccc21,-12,-0.4,20,-5%,4.1,/,-6,-1.9
COCCNC(=O)C(c1ccc(C)o1)N(C(=O)C(=O)NC1CCCCC1)c1ccc(F)cc1 (stereo not drawn),0,0.2,-6,-2%,-2.8,0.3,-2,-4.0
Cc1cc(NS(=O)(=O)c2ccc(NC(=O)/C=C/c3ccccc3Cl)cc2)no1,-12,-1.6,-3,-2%,-2.9,0.0,/,0.2
CN(Cc1cccc(F)c1)C(=O)c1cccc(S(=O)(=O)N2CCN(Cc3ccccc3)CC2)c1,4,-1.7,4,/,1.6,-0.7,-3,-0.3
O=C1Nc2ccccc2C(=O)C1(Cl)Cc1ccccc1 (stereo not drawn),6,1.2,0,2%,4.7,/,-9,-3.5
CCCn1nnnc1-c1cc(Cl)cc(Cl)c1,0,0.6,-1,30%,0.8,-6.8,-4,7.3
CCCCOc1ccc(S(=O)(=O)Nc2ccc(NC(C)=O)cc2)cc1,-2,-0.2,2,26%,2.8,/,9,0.1
O=C(Oc1ccc(/C=N/NC(=O)c2ccccn2)cc1)c1ccc(Br)cc1,6,-5.7,14,/,-1.8,-2.6,-4,1.1
CC1(C)Cc2c(sc3nc(-c4ccccc4)n(N)c(=O)c23)CO1,3,-0.3,4,-5%,0.3,/,9,-2.1
COC(=O)CSc1nnc(-c2ccc(S(=O)(=O)N3CCCC3)cc2)n1C,-34,1.0,-2,3%,?,/,1,-1.8
CN(CC(=O)Nc1ccc(F)cc1)C(=O)COC(=O)CSc1ccc(F)cc1,-6,-0.2,-3,-6%,/,-1.8,-5,-1.2
CCCS(=O)(=O)N1CCCC(C(=O)NCCN2CCC(Cc3ccccc3)CC2)C1 (stereo not drawn),15,0.4,4,-1%,1.8,/,-9,7.9
Cc1ccc(C2NC(=O)NC3=C2CCc2ccccc23)cc1 (stereo not drawn),/,-0.2,/,3%&3%,/,/,-4,3.9
COc1ccc(CCC(=O)N2CCN(S(=O)(=O)c3cccc(Cl)c3)CC2)cc1,/,0.7,/,9%,/,-2.4,-2,2.7
FC(F)(F)c1ccccc1NC(=S)N1CCc2ccccc2C1,-13,0.1,30,6%,2.7,-1.1,72,2.1
O=c1c(/C=C(\O)c2ccccc2)nc2ccccc2n1-c1ccccc1,13,-0.1,-1,8%,72*,/,5,10
CCC(=O)c1ccccc1OCC(=O)Nc1c(C)cccc1C,4,-1.1,-19,5%,-2.2,-2.7,4,-11
NS(=O)(=O)c1ccc(CCNC(=O)CSc2nc3ccccc3c(=O)n2CCC(=O)N2CCCCC2)cc1,-7,-0.3,26,-4%,-3.2,-5.0,1,-1.1
O=C(O)CSc1nnc(-c2ccc(Cl)cc2Cl)n1-c1ccc(Br)cc1,-1,-0.6,39,/,?,-2.6,/,-5.0
CCOC(=O)N1CCN(c2ccc(C(=O)c3cccc(F)c3)cc2)CC1,-1,-0.6,4,0%,3.1,/,-2,2.1
O=C(COC(=O)c1ccc(O)cc1)NCCC1=CCCCC1,5,1.2,17,7%,0.1,-0.5,4,-3.0
CCCCCCn1cnc2c(c1=O)c1nc3ccccc3nc1n2Cc1cccs1,4,0.2,-6,-3%,-2.6,/,1,-3.9
Cc1ccc(NC(=O)C=NOCC(=O)Nc2cc(C)cc(C)c2)cc1,/,1.1,/,/,/,-6.6,0,5.0
O=C(NNS(=O)(=O)c1ccc([N+](=O)[O-])cc1)c1ccncc1,-1,0.6,-4,/,-1.3,0.4,-7,12
O=C(N/N=C/c1ccncc1)c1nc(-c2ccccc2)n2c1CCCCC2,45,-0.2,-15,0%,-2.2,/,-2,-5.7
CCOC(=O)N1CCN(C(=O)Cn2ncc3ccccc32)CC1,4,1.1,2,5%,-1.7,-8.9,/,-2.0
O=C(CNC(=O)c1cccs1)N/N=C/c1ccco1,-1,-0.2,44,11%,1.3,-1.0,-7,-0.5
COc1ccc(C(=O)NC(=S)NC(C)c2ccccc2)cc1 (stereo not drawn),20,-0.3,12,/,4.8,-0.8,/,-11
COc1cc2c(cc1OC)CN(C(=O)C1CCCN1S(=O)(=O)c1ccc(F)cc1)CC2 (stereo not drawn),-9,1.0,10,5%,1.4,6.3,-13,-0.3
CC(C)(C)CN1C(=O)C(=O)NC[C@@H]1Cc1ccc(O)cc1,-22,0.3,0,/,4.7,1.7,-1,7.5
O=C(c1ccc([N+](=O)[O-])o1)N1CCN(c2nc3c(F)cc(F)cc3s2)CC1,56*,0.1,3,-3%,-1.0,-14,57,0.3
O=C(O)c1cc([N+](=O)[O-])c(NCc2cccnc2)c([N+](=O)[O-])c1,2,-0.3,-1,1%,0.6,1.3,-5,-1.8
COc1ccc(NC(=O)c2nc[nH]c2C(=O)N[C@@H](C)c2ccccc2)cc1,-7,-0.5,8,-7%,5.2,4.4,-3,0.8

# Later entries
SMILES,T cruzi repl,Bfl-1 A1 inh,Calb FLC,Vif TR-FRET,RanGTP-Impb inh,MLL AF4-AF9 inh,Beta cell apopt,LANA-H2A inh
COc1ccc(CN2CCSc3sccc3C2=O)cc1,-9,-1.0,5,-5%,0.7,-0.2,-2,0.8
CN(Cc1ccccc1)c1ccc(C(CC(N)=O)NC(=O)Cc2ccc(Br)cc2)cc1[N+](=O)[O-] (stereo not drawn),-9,0.7,-11,/,-1.7,2.0,-15,-2.9
CC(=O)Nc1ccc(C(=O)CSc2nc3ccccc3n2CC(=O)N2CCCC2)cc1,2,0.1,-1,-3%&-2%,?,/,-8,-2.2
COc1ccc(C)cc1NC(=O)NCc1ccccc1F,-25,0.2,-24,-11%,-0.9,-0.3,-17,-8.9
O=C(NCc1ccc(Cl)cc1)C1=Cc2cc(Cl)ccc2OC1,8,/,-6,-1%,-3.7,/,-1,4.0
Cc1[nH]cnc1CSCc1ccc(F)cc1,-13,-0.8,-3,-3%,-0.1,/,-2,5.8
CCOC(=O)Cc1nc(-c2ccc(Cl)cc2)n[nH]1,-7,0.5,-2,-7%,4.3,-1.3,2,-0.1
O=C(CSc1nnc(NC2CCCCC2)s1)NCc1ccco1,2,-0.2,-2,3%,1.0,2.8,-5,-3.4
CCOC1OC(=O)C(Cl)=C1Nc1ccccc1C (stereo not drawn),-5,0.4,20,-9%,6.4,/,0,0.8
N#CCn1cc(/C=N/NC(=O)c2cc3c(ccc4ccccc43)o2)c2ccccc21,12,-0.1,-1,5%,2.1,-0.9,4,2.8
Cc1nc2ccc(NC(=O)c3oc4ccc(F)cc4c3C)cc2s1,/,-2.2,/,-5%,/,/,2,4.5
Cc1cc(C)cc(N(CC(=O)Nc2ccccc2)C2=NC3CS(=O)(=O)CC3S2)c1 (stereo not drawn),14,1.0,1,8%,1.8,-8.5,-30,2.8
CCN=C1NN=C(c2ccc(C)cc2)CS1,6,-0.5,-2,-3%,-3.2,-3.8,3,2.4
CCCN1C2=NS(=O)(=O)CCN2c2ccccc21,-4,0.3,-5,3%,-1.3,/,-5,0.4
CSc1ncccc1C(=O)OCc1ccccc1Cl,-14,-8.2,30,-4%,/,-0.9,1,-1.0

# Source: PubChem BioAssay (several laboratories)
